Source: PubChem BioAssay (ICCB-Longwood Screening Facility, Harvard Medical School)
GIV-Gai inh: blocks GIV peptide binding to rat Galpha-i3. AID 1224905. 210,000 compounds, 0.42% hits. P08753. Galpha-i3/FITC-GIV peptide fluorescence polarization, 90 min; stronger effect = lower value; scaled: aluminum fluoride 0%, vehicle 100%. percent of control (FP), % (no concentration beside the values);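 active = replicate mean at 85% of control or lower, very high polarization wells dropped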;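 also: wells of about 15 µL received 100 nL stock; the first replicate is given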
Target sequence (P08753 whole entry, looked up): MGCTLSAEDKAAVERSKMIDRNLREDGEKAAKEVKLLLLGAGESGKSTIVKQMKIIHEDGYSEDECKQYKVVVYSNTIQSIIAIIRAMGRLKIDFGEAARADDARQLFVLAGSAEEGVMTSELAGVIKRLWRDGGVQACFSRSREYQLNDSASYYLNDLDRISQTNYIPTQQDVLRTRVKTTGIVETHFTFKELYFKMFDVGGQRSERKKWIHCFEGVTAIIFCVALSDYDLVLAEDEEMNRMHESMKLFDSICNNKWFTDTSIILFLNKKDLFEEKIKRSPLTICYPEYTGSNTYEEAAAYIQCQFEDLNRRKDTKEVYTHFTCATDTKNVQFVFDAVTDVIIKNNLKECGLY
HCMV NEC inh: cytomegalovirus nuclear egress complex inhibition. HTRF UL50-UL53 interaction, normalized percent inhibition. inhibition, % (concentration not given with the values). 190,000 compounds, 0.15% hits;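 active = both replicates at 50% or more, plus weaker picks with an unusually low signal ratio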;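 also: stock transfer was 100 nL into about 20 µL; 0% = negative control wells and 100% = wells with untagged competitor protein; inactives centre near -12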
Sa growth 42C: blocks Staphylococcus aureus growth | S. aureus RN4220 growth, OD600, 20 h, 42 °C; stronger effect = lower value | 170,000 compounds, 0.53% hits | relative growth, % (concentration not given with the values);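 active = growth at 42 °C up to 50% and 20 or more points under that at 30 °C, or under 10% at both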;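 also: 300 nL library stock went into each well; scaled to the means of positive and negative controls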
Sa growth 42C second temp: also measured in Sa growth 42C; calls as there; relative growth, %; measured here: growth at 30 °C;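 optical density after 20 h as mean of two plates; 100% = untreated growth and lower means inhibition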
The depositor's hits bear a star; / = not tested or not shown; & = joins results of further samples.

SMILES | GIV-Gai inh | HCMV NEC inh | Sa growth 42C | Sa growth 42C second temp
Oc1ccc2ccccc2c1C=NCc1cn2ccsc2n1 | / | 20 | 112 | 97
CCOc1ccc(/C=C2\SC(=S)N(CCCC(=O)N(CCO)Cc3ccccc3)C2=O)cc1 | 101 | -28 | / | /
O=C(O)c1ccc(NC(=O)C2CC(=O)N(CCc3ccccc3)C(=Nc3ccc(F)cc3)S2)cc1 (stereo not given) | 98 | -18 | / | /
CCC(CC)(C(=O)O)C(=O)O | / | -5 | 100 | 94
COC(=O)C1CSCN1 (stereo not given) | 106 | -19 | 114 | 94
CCCCNC(=O)c1sc2nc3n(c(=O)c2c1C)CCC3 | 104 | -26 | 86 | 77
Cc1nnc(SCC(=O)N/N=C/c2cccc3cccnc23)n1-c1ccccc1 | 96 | -48 | 98 | 108
COCc1snnc1C(=O)OC | 97 | -10 | 94 | 79
Cc1cc(C)c(S(=O)(=O)NCCc2cc3ccc(C)c(C)c3[nH]c2=O)c(C)c1 | 103 | 1 | 126 | 99
O=C(NCc1n[nH]c(=O)c2ccccc12)NC1CCCCC1 | 102 | -27 | 98 | 86
CCC(=O)Nc1ccccc1-c1nnc(SC(C)C(=O)Nc2ccc(C)cc2C)[nH]c1=O (stereo not given) | 100 | 1 | / | /
Cc1cc(C(=O)CN(C)c2ccccc2)c(C)n1-c1c(C)n(C)n(-c2ccccc2)c1=O | / | 4 | 74 | 99
O=C(NCc1ccc2c(c1)CCN2C(=O)c1ccncc1)c1cccc(Cl)c1 | 106 | / | 134 | 83
CC1CN(C(=O)COc2ccccc2)CC(C)O1 (stereo not given) | / | -21 | 89 | 85
COc1cccc(NCc2nnc(SCC(=O)c3ccc(Cl)s3)n2C2CCCCC2)c1 | / | -28 | 151 | 87

Full records as entered above. Screens in order: GIV-Gai inh	HCMV NEC inh	Sa growth 42C	Sa growth 42C second temp
COC(=O)C1CSCN1 (stereo not given) is listed with 106	-19	114	94
O=C(NCc1ccc2c(c1)CCN2C(=O)c1ccncc1)c1cccc(Cl)c1 is listed with 106	/	134	83
CC1CN(C(=O)COc2ccccc2)CC(C)O1 (stereo not given) is listed with /	-21	89	85

Following part
SMILES | GIV-Gai inh | HCMV NEC inh | Sa growth 42C | Sa growth 42C second temp
CCc1ccc(NC(=O)N2CCC(c3ccccc3)C2)cc1 (stereo not given) | 99 | / | 139 | 87
CCOc1ccc2c(c1)C(C)=CC(C)(C)N2C(=O)Cn1cnc2c1c(=O)n(C)c(=O)n2C | / | -23 | 78 | 94
Cc1ccccc1C1C(/C=c2/sc3nc4ccccc4n3c2=O)=C(c2cccs2)Oc2ccccc21 (stereo not given) | 98 | -24 | / | /
CC1CN(c2nnc(-c3ccccc3)c3ccccc23)CC(C)O1 (stereo not given) | / | -6 | 99 | 98
Cc1ccc(N(C)C(=O)C2CCCN2S(=O)(=O)c2cccc3nsnc23)cc1 (stereo not given) | 102 | -72 | 111 | 96
O=S(=O)(c1ccc(Cl)cc1)N1CCN(Cn2nnc(-c3ccccc3)n2)CC1 | / | -12 | 94 | 93
C=CCN(C(=O)Cn1nc(Cc2cccnc2)c2ccccc2c1=O)c1ccccc1 | 99 | 2 | 102 | 74
O=c1c(-c2cc(-c3ccccc3)nc3c2COc2ccc(Cl)cc2-3)coc2ccccc12 | 103 | -3 | 102 | 94
Cc1ccccc1NC(=O)Cn1c(=O)n(Cc2ccc3c(c2)OCO3)c(=O)c2ccc(C(=O)NC3CCCCC3)cc21 | 103 | -31 | 95 | 86
COc1ccc(S(=O)(=O)NCc2cccs2)cc1C(C)(C)C | 101 | -7 | 106 | 72
CCn1c(=O)c2cc(C(=O)NC3CCC(C)CC3)sc2c2ccccc21 (stereo not given) | 106 | 0 | 111 | 91
COc1cccc(CN2CCC(C(=O)N3CCCC(C)C3)CC2)c1 (stereo not given) | 96 | 0 | 101 | 82
COc1ccc(-c2noc(-c3ccc(NCc4cccnc4)c([N+](=O)[O-])c3)n2)cc1 | 102 | -9 | 92 | 90
O=C(Nc1ccc(F)c(Cl)c1)N1CCN(c2ccc(=O)n(-c3ccc(F)cc3)n2)CC1 | 106 | -2 | / | /
Cn1c(=O)c2c(nc(Sc3ccccc3NC(=O)Nc3cccc(Cl)c3)n2C)n(C)c1=O | 107 | 19 | / | /
COc1ccc(-c2cc(C)no2)cc1S(=O)(=O)NCCN1CCN(c2ccccc2)CC1 | 98 | -27 | 110 | 82
Nc1nc(SCC(=O)NCc2cccnc2)nc2sc3c(c12)CCCC3 | 99 | -12 | / | /
CC1=C(C(=O)c2ccccc2)CC(C(=O)c2ccccc2)=C(C)N1 | / | -11 | 86 | 61
NS(=O)(=O)c1ccc(N2C(=O)CSC2=S)cc1 | / | 1 | 89 | 98
CCOC(=O)CCn1nc(-c2ccccc2)cc1N | 108 | / | 113 | 88
CCOc1ccc(C(=O)NC(CC)CC)cc1OCC | 108 | -6 | 90 | 105
CCOC(=O)c1cnc(-c2cccc(OC)c2)[nH]c1=O | 103 | -2 | 95 | 88
C=CCNC(=O)CCn1c(=S)[nH]c2cc3c(cc2c1=O)OCO3 | 103 | / | 114 | 89
COc1ccc(-c2cc(-c3ccccc3)c(C#N)c(SC3CCCCC3O)n2)cc1 (stereo not given) | 99 | / | 104 | 84
Cc1ccc(N2C(=O)CS(=O)(=O)C23C(=O)Nc2ccccc23)cc1C (stereo not given) | 104 | / | 101 | 90
N#Cc1ccc(-c2ccncc2)nc1SCC(N)=O | / | -1 | 72 | 93
CCNc1nc(NCC)nc(OCCOC(C)=O)n1 | 99 | / | 94 | 88
O=S(=O)(c1ccc(Br)cc1)N1CCC(n2c(C(F)(F)F)nc3cccnc32)CC1 | 100 | -4 | / | /
COc1ccc(-c2ccc(CNC(C)(C)C)o2)cc1Cl | 107 | -40 | / | /
COC(=O)c1ccc(NC(=O)CC(c2ccc(OC)cc2)N2Cc3ccccc3C2=O)cc1 (stereo not given) | 100 | 0 | / | /
CSc1nnc(-c2ccc(S(=O)(=O)n3nc(C)cc3C)s2)n1C | 97 | -55 | 93 | 88
CCCOC(=O)C1=C(C)NC2=C(C(=O)CC(c3ccc(OC)c(OC)c3)C2)C1c1ccccc1OCC (stereo not given) | 100 | -6 | / | /
CC(C1CC1)n1nccc1NC(=O)COc1cccc(Cl)c1 (stereo not given) | 103 | -10 | / | /
CCC(C)(C)NC(=O)Cn1c(C)csc1=O | / | 2 | 105 | 92
O=C(c1cnc2cc(-c3ccccc3)nn2c1)c1cc([N+](=O)[O-])ccc1O | 108 | -91 | 79 | 40
COc1cc(OC)c(NC(=O)N2Cc3c(sc4c3CCN(C)C4)-n3cccc3C2C)cc1Cl (stereo not given) | 110 | -11 | / | /
Cc1ccc(C)c(C(=O)COC(=O)c2cccc(C(=O)OCC(=O)c3cc(C)ccc3C)n2)c1 | 101 | / | 86 | 89
CCN(Cc1ccccc1)c1ccc(NS(=O)(=O)c2cc(C)ccc2C)cc1C(=O)O | 97 | -5 | / | /
N#C/C(=C(/O)c1cccc(Cl)c1)c1nc2ccccc2s1 | 108 | -26 | 61 | 35
CS(=O)(=O)N1CCc2cc(C(=O)NCC3CCCO3)ccc21 (stereo not given) | 97 | -9 | / | /
CN(C)c1ccc(/C=N/n2cnc3ccccc32)cc1 | / | -91 | 93 | 77
COc1cc(C2c3c(-c4ccc(F)cc4)n[nH]c3C(=O)N2c2ccccc2)ccc1O (stereo not given) | 106 | 4 | 76 | 69
Cc1nn2c(=O)cc(COC(=O)C(c3ccccc3)c3ccccc3)nc2s1 | 103 | / | 87 | 72
O=C(NCc1ccc2c(c1)CCN2C(=O)c1ccccc1)Nc1cc(F)ccc1F | 106 | / | 87 | 90
Cc1cc(=O)n(Cc2ccc(Cl)cc2)c(SCC(N)=O)c1C#N | / | 3 | 74 | 93
Cc1ccc(NC(=O)COC(=O)CN2CSCC2=O)cc1C | / | -13 | 93 | 85
COc1ccc(NC(=O)CCN2CCOCC2)cc1 | 92 | -11 | 106 | 107
COc1ccc(-c2ccc(-c3ccccc3)o2)cc1 | / | -2 | 96 | 92
CCOC(=O)c1c(C)[nH]c(C)c1S(=O)(=O)NCC(=O)NCc1ccccc1Cl | 106 | / | 85 | 81
CCOC(=O)c1cc(-c2ccco2)nn1-c1ccc(C)cc1C | / | -34 | 102 | 94
Cc1nc(CC(=O)Nc2nnc(C3CCCO3)s2)cs1 (stereo not given) | 106 | -17 | / | /
CCOC(=O)c1ccc(N2C(=O)NC(=O)/C(=C\c3ccc(N(C)C)cc3)C2=O)cc1 | 103 | -13 | / | /
O=C(CSc1nncs1)NCCN1C(=O)CSC1=O | / | -6 | 91 | 92
Cc1ccc(NC(=O)COC(=O)C2=NC=CN3CCS(=O)(=O)N=C23)cc1 | / | -44 | 68 | 93
O=C(CN=C1NS(=O)(=O)c2ccccc21)N1CCC(c2nc3ccccc3s2)CC1 | / | -16 | 86 | 91
Cc1ccc(F)cc1NC(=O)Cn1c(C)cc(C)c(C#N)c1=O | 112 | / | 111 | 99
Cn1ncc(C(=O)O/N=C/c2ccc(OC(F)(F)F)cc2)c1-n1cccc1 | 102 | -23 | 93 | 95
O=C(CSc1ccccc1)N1CCc2ccccc2C1 | / | -30 | 115 | 81
CCCNC(=O)C(=O)NCC(c1ccc2c(c1)OCO2)N1CCOCC1 (stereo not given) | 107 | / | 95 | 84
FC(F)(F)c1ccc(-c2noc(-c3ccno3)n2)cc1 | 108 | 8 | 101 | 100

Part of the list above, tab-delimited.
smiles	GIV-Gai inh	HCMV NEC inh	Sa growth 42C	Sa growth 42C second temp
CC1CN(C(=O)COc2ccccc2)CC(C)O1 (stereo not given)	/	-21	89	85
COc1cccc(NCc2nnc(SCC(=O)c3ccc(Cl)s3)n2C2CCCCC2)c1	/	-28	151	87
CCc1ccc(NC(=O)N2CCC(c3ccccc3)C2)cc1 (stereo not given)	99	/	139	87
CCOc1ccc2c(c1)C(C)=CC(C)(C)N2C(=O)Cn1cnc2c1c(=O)n(C)c(=O)n2C	/	-23	78	94
Cc1ccccc1C1C(/C=c2/sc3nc4ccccc4n3c2=O)=C(c2cccs2)Oc2ccccc21 (stereo not given)	98	-24	/	/
CC1CN(c2nnc(-c3ccccc3)c3ccccc23)CC(C)O1 (stereo not given)	/	-6	99	98
Cc1ccc(N(C)C(=O)C2CCCN2S(=O)(=O)c2cccc3nsnc23)cc1 (stereo not given)	102	-72	111	96

New compounds follow:
SMILES | GIV-Gai inh | HCMV NEC inh | Sa growth 42C | Sa growth 42C second temp
CCOc1ccc(OCC)c(NC(=O)c2scc(-c3ccccc3)c2-n2cccc2)c1 | 100 | -16 | / | /
CC1=C(C(=O)Nc2ccc(C)cc2C)C(c2ccccc2)n2nc(SCC(=O)c3ccc(C)cc3)nc2N1 (stereo not given) | 101 | / | 110 | 101
CCNc1nc(NCC)nc(NNS(=O)(=O)c2cc(Br)ccc2Br)n1 | / | -2 | 85 | 95
N#Cc1ccc(-c2ccccc2)nc1SCC(=O)c1ccc(O)c(O)c1 | 111 | -20 | / | /
N#Cc1ccc(Oc2ccc(NC(=O)c3ccc(Br)o3)cc2)cc1 | 106 | 11 | 98 | 100
Cc1cc(C)cc(N(CC(=O)N2CCN(C)CC2)S(=O)(=O)c2c(C)nn(C)c2C)c1 | 99 | -8 | / | /
Cc1ccc(NC(=O)N2CCCN(c3ccc(=O)n(-c4ccc(Cl)cc4)n3)CC2)c(Cl)c1 | 106 | -16 | / | /
O=C(c1ccccc1F)N1c2ncnn2C2(CCCCC2)[C@@H]2CCCC[C@@H]21 | 100 | 9 | 106 | 90
COc1ccc(C2NCCc3c2[nH]c2ccccc32)cc1O (stereo not given) | 108 | 8 | / | /
Cc1ccc(SC(=O)c2ccc(C#Cc3ccccc3)o2)cc1 | 105 | -27 | 89 | 89
N=c1ccn(CC(=O)N2CCCc3ccccc32)c2ccccc12 | 105 | -12 | 92 | 71
Cc1ccccc1Cn1nnc2c(=O)[nH]c(C3CCN(C(=O)c4ccc(F)cc4)CC3)nc21 | 110 | 15 | 19 | 26
COc1ccccc1NC(=S)N/N=C1/C=C(C)CC1 | / | 25 | 102 | 105
Clc1cc2c(c3ncccc13)OCN(CCC1=CCCCC1)C2 | 92 | / | 0.1* | 0.7*
O=C(Cn1ncc2c3ccccc3n(Cc3ccccc3F)c2c1=O)NCc1ccccc1Cl | 98 | -12 | 104 | 92
O=C(NCCC1=CCCCC1)c1ccc2c(c1)ncn2C1CCCC1 | 105 | / | 120 | 78
N#Cc1c(-c2ccco2)cc(-c2ccco2)[nH]c1=O | 95 | -137 | 73 | 66
COc1cccc(-n2c(=O)c3cc(OC)c(OC)cc3n(CC(=O)Nc3ccccc3)c2=O)c1 | 107 | -11 | 99 | 99
CCCCOC(C)n1ccc(=O)[nH]c1=O (stereo not given) | 105 | -23 | 94 | 87
O=C(Cc1ccccc1F)Nc1ccnn1Cc1ccccc1 | / | -14 | 93 | 89
CC1(C)CC(=O)c2cnn(-c3nc4ccccc4[nH]3)c2C1 | 108 | -14 | 125 | 86
CCOC(=O)c1c(CN2CCCC2)n(C2CCCCC2)c2cc(Br)c(O)cc12 | 98&103 | 4&6 | / | /
CC(Sc1ncnc2c1oc1ccccc12)C(=O)c1ccc(F)cc1 (stereo not given) | / | 62 | 95 | 94
O=S(=O)(NC1CCCCC1N1CCCCC1)c1ccc(Cl)cc1 (stereo not given) | 116 | / | 114 | 80
O=C(CN1C(=O)C2CC=CCC2C1=O)OCc1nnc(-c2ccccc2Br)o1 (stereo not given) | / | 12 | 97 | 93

Compounds were not picked by outcome. About 0.83% of those tested had a hit in this group.
